From PubChem BioAssay
Rce1 inhib = yeast Rce1p protease inhibitors, primary screen, biochemical, fluorescence, cell-free homogeneous | CAAX prenyl protease 2 (Saccharomyces cerevisiae (strain ATCC 204508 / S288c)), Q03530 | yeast membranes, quenched prenylated peptide cleavage fluorescence | calls only | 0.27% of 290,000 active | AID 2563, 2010;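 active = fall in fluorescence gain of 50% or more versus controls, with final raw signal at or below 3038400; inconclusive = same 50% fall but final raw signal above 3038400; inactive = fall in fluorescence gain under 50%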;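 note: plate controls were neutral control wells for no effect and wells lacking membranes for full effect; tested at 10 µM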
Target sequence (Q03530 whole entry, looked up): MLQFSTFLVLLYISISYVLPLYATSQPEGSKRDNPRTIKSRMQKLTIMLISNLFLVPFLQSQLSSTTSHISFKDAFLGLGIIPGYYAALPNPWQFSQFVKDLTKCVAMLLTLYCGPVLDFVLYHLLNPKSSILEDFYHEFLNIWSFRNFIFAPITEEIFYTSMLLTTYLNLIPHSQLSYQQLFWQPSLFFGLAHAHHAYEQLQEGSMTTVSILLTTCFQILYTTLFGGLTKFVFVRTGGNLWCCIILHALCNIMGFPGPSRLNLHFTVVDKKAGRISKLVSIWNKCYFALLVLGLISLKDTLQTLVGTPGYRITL
MT1-MMP act inh = blockers of MT1-MMP proenzyme processing, primary screen, HT1080 RFP-PRO-GFP cells, GFP/RFP fluorescence; GFP/RFP ratio fluorescence, overnight; percent of plate control window, DMSO zero; GFP/RFP ratio change, % at 20 µM; 0.061% of 360,000 active; Matrix metalloproteinase-14 (Homo sapiens), P50281;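 active = GFP/RFP ratio change of at least 30% with cell ATP level not reduced by more than half and red fluorescence within 50% of control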; note: strong numbers were not always called active
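Compound: 20 µM single dose, 1% DMSO / System: HT1080 RFP-PRO-GFP cells / Controls: DMSO and RFP-L50D-GFP cell wells / Read-out basis: GFP/RFP fluorescence ratio / Schedule: overnight compound exposure at 37 °C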
eIF4H inh = human eIF4H binding inhibitors, primary screen, translation initiation inhibitor project, biochemical, uHTS, fluorescence polarization | Eukaryotic translation initiation factor 4H (Homo sapiens), Q15056 | eIF4H fluorescence polarization binding assay | inhibition, % at 35 µM | 0.94% of 290,000 active | AID 2012, 2009;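 active = 50% or more with normal probe brightness, or confirmed in later tests; inconclusive = above 50% with abnormal brightness, or retests that disagree; inactive = below 50% or failed in later tests; about a fifth of its hits are not listed in these tables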;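 note: calls also rest on retests at 20 µM and on dose response follow-up; 0% = protein and probe with vehicle and 100% = probe without protein; strong numbers were not always called active; many hits fall short of the cut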
UUG fidelity = modulators of yeast start codon fidelity, primary screen, whole organism, S. cerevisiae, single point, plate reader. S. cerevisiae UUG-firefly luciferase reporter, luminescence/redox ratio. activity score, % at 18.7 µM. 0.13% of 350,000 active. AID 602363, 2012;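 active = replicate mean at a twofold rise or more, about +100% in these data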;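 note: firefly luciferase made from a UUG start codon reports start codon fidelity; reporter light over untreated wells divided by growth signal over untreated wells; some hits fall short of that in this replicate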
Env fusion inh = inhibitors of HIV-1 Env-driven cell-cell fusion, primary screen, HeLa-JRFL effector, CEM21 target cells, luciferase; inhibition, % at 12.3 µM; 1.1% of 360,000 active;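 active = mean replicate inhibition score of at least 50 and every replicate individually at or above 50; inconclusive = only one of the two criteria met; inactive = mean below 50 and not all replicates reaching 50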;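 note: 0% = plate neutral controls and 100% = maraviroc near 300 nM; one replicate is shown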
PABP FP inh = PABP poly(A) RNA binding inhibitors, primary screen, biochemical, fluorescence polarization, uHTS. inhibition, % at 35 µM. 1% of 290,000 active;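 active = 50% or more with normal probe brightness, or confirmed in later tests; inconclusive = above 50% with abnormal brightness, or retests that disagree; inactive = below 50% or failed in later tests; about a fifth of its hits are not listed in these tables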;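 note: calls also rest on retests at 20 µM and on dose response follow-up; controls were probe without protein and protein plus probe with vehicle; some compounds called inactive have numbers as strong as hits; many hits fall short of the cut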
Target sequence (P11940 whole entry, looked up): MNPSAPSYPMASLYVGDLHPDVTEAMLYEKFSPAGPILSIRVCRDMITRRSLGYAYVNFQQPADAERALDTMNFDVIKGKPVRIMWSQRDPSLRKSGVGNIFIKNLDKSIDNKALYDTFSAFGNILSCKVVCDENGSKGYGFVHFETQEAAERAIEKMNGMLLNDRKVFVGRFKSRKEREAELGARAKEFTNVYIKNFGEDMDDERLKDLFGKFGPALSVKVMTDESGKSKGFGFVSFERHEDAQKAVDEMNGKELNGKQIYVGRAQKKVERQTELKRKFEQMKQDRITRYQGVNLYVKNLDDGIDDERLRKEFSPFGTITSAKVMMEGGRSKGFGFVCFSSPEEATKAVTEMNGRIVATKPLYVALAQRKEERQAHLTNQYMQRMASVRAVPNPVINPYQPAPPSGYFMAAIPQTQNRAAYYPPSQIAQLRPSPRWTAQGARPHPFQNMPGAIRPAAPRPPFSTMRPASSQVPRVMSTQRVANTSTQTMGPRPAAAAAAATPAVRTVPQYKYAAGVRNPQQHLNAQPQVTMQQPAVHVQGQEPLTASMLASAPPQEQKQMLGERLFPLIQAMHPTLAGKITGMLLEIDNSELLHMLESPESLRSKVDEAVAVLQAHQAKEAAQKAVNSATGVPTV
CSC inhib = cancer stem cell viability inhibitors, primary screen, luminescence; cancer stem cell-like cells viability; inhibition, % at 7.5 µM; 1.1% of 300,000 active; AID 2717, 2010;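 active = mean at 75% or more and at least half the replicates too; inconclusive = mean and replicates disagree; tested in HMLE shEcad cells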;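 note: 0% = median of negative and 100% = median of positive control wells; the first replicate is given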
MT1-MMP act inh RFP = recorded beside MT1-MMP act inh, whose call it bears; RFP signal change, %; measured here: RFP expression control read;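 0 = vehicle wells; hits needed this value within 50% of zero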
* marks the source's active call; other numbers are inactive results; i = inactive; ? = inconclusive; . = no result given. A portion of the library, so the mix of outcomes need not match the whole.

SMILES	Rce1 inhib	MT1-MMP act inh	MT1-MMP act inh RFP	eIF4H inh	UUG fidelity	Env fusion inh	PABP FP inh	CSC inhib
CC(=O)Nc1ccc(-c2csc(NC(C)c3ccccc3)n2)cc1 (centres undefined)	i	0	4	27	.	8	12	-1
CCOC(=O)c1c(C)c(C(=O)NCc2cccs2)c(C)n1C	i	6	5	-8	-9	21	-6	1
COc1ccc(Cc2c(-c3ccc(C)cc3)nc3ccc(Cl)cn23)c(C)c1	.	-6	-2	.	-18	-161	.	.
COc1ccc2c(c1)C(C1C(=O)CCCC1=O)c1ccccc1O2 (centres undefined)	i	0	0	0	-9	.	5	-15
O=C(Nc1ccccc1N1CCCC1)c1ccc(Cl)cc1Cl	i	1	1	12	.	1	2	10
O=C(CSc1nnc(-c2ccco2)n1-c1ccccc1)NCc1ccco1	i	-1	14	-8	-12	-62	-5	-14
COC(=O)CSc1ccnc2cc(Cl)ccc12	i	2	5	7	.	6	-10	-8
NC(=O)C1CCN(C(c2ccccc2Cl)c2nnnn2Cc2ccc3c(c2)OCO3)CC1 (centres undefined)	i	-1	3	-3	4	.	-4	6
COc1ccc(CN2CCC(CNS(=O)(=O)c3cccc(C(F)(F)F)c3)CC2)cc1	i	5	3	0	-4	-2	0	34
CN(C)/C=N/c1nc(Sc2ccc(C(F)(F)F)cc2[N+](=O)[O-])n[nH]1	i	4	-2	-7	.	19	1	-3
COc1cc(/C=N/Nc2ccnc(=O)[nH]2)ccc1O	i	3	0	-11	-25	-2	10	-8
O=C(O)c1cc(Cl)ccc1-c1ccc(/C=C/c2cc(C(F)(F)F)[nH]c(=O)n2)o1	i	-78	0	?	.	11	?	6
O=C(COc1ncnc2c(Cl)cc(Cl)cc12)NC1CCCCCC1	i	-1	1	-1	-25	-10	-11	-11
Cc1ccc(N(C(C)C(=O)N2CCCC2)S(C)(=O)=O)cc1 (centres undefined)	i	2	2	-4	-10	4	1	-1
O=C(CSC1=NS(=O)(=O)c2cc(F)ccc2N1)Nc1ccccc1	i	-2	1	.	.	9	.	9
Clc1cccc(CN2CCc3c([nH]c4ccccc34)C2)c1	.	-4	3	8	-3	24	16	29
O=C(CN1C(=O)COc2ccc(S(=O)(=O)N3CCCCC3)cc21)NCc1ccc(F)cc1	i	4	7	.	.	5	.	-18
COc1ccc(NC2CC(=O)NC2=O)cc1 (centres undefined)	i	3	0	1	-5	-64	11	8
CC(C)C[C@H]1CN=C(Nc2ccccc2)N1CC1CCCCCC1	.	6	0	.	-16	8	.	15
Cc1ccc(CNC(=O)C2CC3Cn4c(nc5cc(C)c(C)cc54)C3N2C)o1 (centres undefined)	i	-1	-3	5	-10	-8	3	5
CCOc1ccc(C2C(C(=O)c3ccco3)=C(O)C(=O)N2CCN2CCOCC2)cc1 (centres undefined)	i	2	5	8	-4	-7	-2	-19
CCN(Cc1ccccc1)C(=O)COC(=O)c1n[nH]c2ccccc12	.	3	-8	2	-13	.	-8	2
CCn1c(CNC(=O)Cc2ccc(OC)cc2)nnc1SCC(=O)c1ccccc1	.	2	4	-5	.	14	9	.
COc1ccc(C2N(S(=O)(=O)c3ccccc3)CCN2S(=O)(=O)c2ccc(C)cc2)cc1 (centres undefined)	i	-3	-5	-3	11	?	9	3
CCN(CC(=O)O)S(=O)(=O)c1cc(Cl)ccc1Cl	i	6	2	-8	-4	.	1	-11
CSc1ccccc1OCc1cc(C(=O)NCCc2nc(C)cc(C)n2)no1	i	1	2	7	-11	-12	-2	.
CC(NCCC1(Cc2ccccc2Cl)CCOC(C)(C)C1)c1cccs1 (centres undefined)	i	-1	-2	-5	-2	8	8	0
Cc1cccc(NC(=O)Cn2cc(C=O)c3ccccc32)c1	i	-3	-21	-11	-12	28	0	5
CCCCn1c(N)c(N(CC(C)C)C(=O)C2CC(=O)N(c3ccccc3C(C)CC)C2)c(=O)[nH]c1=O (centres undefined)	i	-5	-2	.	13	5	.	-6
CN(C)S(=O)(=O)c1cc(NC(=O)CN2CCN(c3ccccc3F)CC2)ccc1Cl	i	3	0	-3	-4	11	-8	-9
COc1cc(C(=O)Nc2nnc(-c3sccc3C)s2)cc(OC)c1OC	i	-1	-8	-28	-12	-33	-4	-3
CCOCCCNC(=O)N[C@@H](C)C(=O)OC	i	-7	-1	5	-9	-15	-12	-3
Cn1c(SCC(=O)N/N=C/c2cc([N+](=O)[O-])ccc2O)nnc1-c1ccccc1	i	3	3	3	.	4	4	0
CCCCN(CC)CCNC(=O)CN(C)S(=O)(=O)c1ccc2c(c1)c(=O)n(C)c(=O)n2C	i	4	3	-2	-15	-108	0	5
CCOC(=O)C1CCN(C(=O)c2c(-c3c(Cl)cccc3Cl)noc2C)CC1	i	-5	-5	-1	0	.	1	3
COc1cccc(C(=O)OCC(=O)c2c[nH]c3ccccc23)c1OC	.	0	0	.	-18	6	.	.
COC(=O)c1ccc(NC(=O)c2ccccc2N(C)S(C)(=O)=O)cc1	i	0	7	-11	-22	.	-9	3
COc1ccccc1Cn1c(=O)c2ccccc2n2c(SCC(=O)N3CCCCC3)nnc12	i	-4	4	2	0	-2	-9	23
CCC(CC)NC(=O)CSc1ccc(S(=O)(=O)N2CCCCC2)cn1	.	7	4	.	-4	-12	.	.
O=C(Nc1cccnc1)C1CCC(CNS(=O)(=O)c2cccc3nsnc23)CC1 (centres undefined)	i	-2	-2	0	-5	8	5	-8
COc1ccc(S(=O)(=O)N2N=C(c3cccc(NS(C)(=O)=O)c3)CC2c2ccco2)cc1 (centres undefined)	i	-3	-1	-2	-3	1	-8	1
CCCn1c(Nc2ccc(Cl)cc2)nc2ccccc21	i	1	-1	-5	-15	22	-9	2
O=C(Nn1c(Cc2cccs2)nc2ccccc2c1=O)c1cccs1	i	-6	0	-4	.	-38	4	3
Cc1ccc(C(=O)NNC(=O)c2cccc3ccccc23)cc1	.	1	-1	.	-16	4	.	.
CNC(=O)CN(C)S(=O)(=O)c1ccc(F)cc1	i	1	4	-3	-2	-11	-6	-4
COc1ccc(N2CC(C)Cn3c2nc2c3c(=O)n(Cc3ccccc3F)c(=O)n2C)c(OC)c1 (centres undefined)	i	5	-1	-9	13	41	3	-1
Cc1ccc(CC(=O)Nc2ccc(C(=O)N3CCCCC3)cc2)cc1	i	8	-2	-4	-4	15	-9	-7
Cc1noc(NS(=O)(=O)c2ccc(NC(=O)CS(=O)(=O)c3ccccc3)cc2)c1C	i	2	8	-6	41	.	4	-3
C=CCNc1oc(-c2ccco2)nc1S(=O)(=O)c1ccccc1	i	-5	1	-4	-6	30	-2	13
CCC(Sc1nc(C)cc(C)n1)C(=O)Nc1ccc(S(N)(=O)=O)cc1 (centres undefined)	i	-2	2	15	.	2	-9	-13

Rewritten with two lines to a compound: ten of the compounds above
Values in the order – Rce1 inhib	MT1-MMP act inh	MT1-MMP act inh RFP	eIF4H inh	UUG fidelity	Env fusion inh	PABP FP inh	CSC inhib
- COc1ccccc1Cn1c(=O)c2ccccc2n2c(SCC(=O)N3CCCCC3)nnc12
    i	-4	4	2	0	-2	-9	23
- CCC(CC)NC(=O)CSc1ccc(S(=O)(=O)N2CCCCC2)cn1
    .	7	4	.	-4	-12	.	.
- O=C(Nc1cccnc1)C1CCC(CNS(=O)(=O)c2cccc3nsnc23)CC1 (centres undefined)
    i	-2	-2	0	-5	8	5	-8
- COc1ccc(S(=O)(=O)N2N=C(c3cccc(NS(C)(=O)=O)c3)CC2c2ccco2)cc1 (centres undefined)
    i	-3	-1	-2	-3	1	-8	1
- CCCn1c(Nc2ccc(Cl)cc2)nc2ccccc21
    i	1	-1	-5	-15	22	-9	2
- O=C(Nn1c(Cc2cccs2)nc2ccccc2c1=O)c1cccs1
    i	-6	0	-4	.	-38	4	3
- Cc1ccc(C(=O)NNC(=O)c2cccc3ccccc23)cc1
    .	1	-1	.	-16	4	.	.
- CNC(=O)CN(C)S(=O)(=O)c1ccc(F)cc1
    i	1	4	-3	-2	-11	-6	-4
- COc1ccc(N2CC(C)Cn3c2nc2c3c(=O)n(Cc3ccccc3F)c(=O)n2C)c(OC)c1 (centres undefined)
    i	5	-1	-9	13	41	3	-1
- Cc1ccc(CC(=O)Nc2ccc(C(=O)N3CCCCC3)cc2)cc1
    i	8	-2	-4	-4	15	-9	-7

(listing goes on)
SMILES	Rce1 inhib	MT1-MMP act inh	MT1-MMP act inh RFP	eIF4H inh	UUG fidelity	Env fusion inh	PABP FP inh	CSC inhib
O=C(N1CCOCC1)C12OC3CC(CC(C3)O1)O2	.	6	5	.	-4	-27	.	.
CCCCN1CC[C@H]2C=CC[C@@H](C(=O)Nc3ccccc3)[C@H]2C1=O	i	3	5	.	-8	12	.	-2
Cc1ccc(C2c3c(oc4ccccc4c3=O)C(=O)N2c2nnc(C(C)C)s2)o1 (centres undefined)	i	1	2	-4	-6	-23	10	-12
Cc1cc(C(F)(F)F)nn1CC(=O)N1CCCC1	i	3	-1	8	-21	.	5	-13
CCOc1cc(C(=O)N(CC)CC(=O)Nc2ccc3c(c2)OCCO3)ccc1OC	.	1	3	.	-7	-8	.	-12
CCOC(=O)C1CCN(Cc2ccc(-c3ccccc3)cc2)CC1	i	2	-1	4	-1	14	6	-18
O=C(NNC(=O)c1cc2cc3ccccc3nc2s1)c1ccc(F)cc1	i	5	2	-14	-12	.	-13	-10
O=C(CN1CCCCC1)N/N=C/c1ccc(Cl)cc1	i	1	2	6	-21	-4	-9	-14
